# Screening data deposited in PubChem by SRMLSC.
# H5N1 antiviral = antiviral screen in MDCK cells, H5N1 avian flu; cytopathic effect, luminescence, 72 h; stronger effect = higher value; no value below 0 was filed and about half of the inactive calls have no number; reference of the scale not given here; inhibition, % at 50 µM; 96,000 tested, 0.07% active; AID 740; in the data active = inhibition above about 25%
# An asterisk follows results filed as active; i = inactive. Not all compounds are listed. The share of hits here may be higher or lower than overall.
SMILES,H5N1 antiviral
CCN(CC)CCN1C(=O)c2oc3ccccc3c(=O)c2C1c1ccc(F)cc1 (configuration not stated),i
O=C(c1cccs1)N1CCN(Cc2nc3ccccc3c(=O)[nH]2)CC1,0.3
O=C1c2ccccc2C(=O)N1CC(O)COCc1ccccc1 (configuration not stated),i
CC1(C)Cc2cccc(OCC(=O)Nc3nccs3)c2O1,i
O=C(COc1ccc2ccccc2c1)N1CCN(Cc2ccncc2)CC1,i
CC(C)c1nc(N2CCN(C(=O)c3ccccc3)CC2)c(C#N)c2c1COC(C)(C)C2,i
COc1ccc(C2Nc3ccccc3C(=O)N2Cc2ccco2)cc1COc1ccc([N+](=O)[O-])cc1 (configuration not stated),i
Cc1c(C(=O)OCCOc2ccccc2)[nH]c2c1C(=O)CCC2,i
COc1cc2oc3ccccc3c2cc1N(CC(=O)N(C)C)S(=O)(=O)c1ccc(C)cc1,2.6
CCOc1ccc(N(CC(=O)NC(C)CC)S(=O)(=O)c2c(C)noc2C)cc1 (configuration not stated),0.4
O=C(CSc1nc(N2CCCCC2)nc(N2CCCCC2)n1)Nc1nccs1,0.2
CCOc1cccc(C(=O)Nc2nnc(-c3cccs3)s2)c1,1.9
CCC(C)NCCOCCOc1ccccc1-c1ccccc1 (configuration not stated),i
Cc1nnc(-c2cnn(C)c2N)n1Cc1ccccc1F,i
CCOc1ccc(CNC(=O)CCn2c(=O)oc3ccccc32)cc1OC,0.1
CC(CN1CCN(C)CC1)OC(=O)c1ccccc1 (configuration not stated),0.7
CC(C)C[C@H](NC(=O)OC(C)(C)C)c1nnc(SCC(=O)Nc2ccc(Br)cc2)o1,i
O=C(OCc1ccccc1F)c1ccc2c(c1)-c1ccccc1C2=O,i
CCN1C(=O)c2cccc3c(S(=O)(=O)Nc4ccccc4OC)ccc1c23,10
COCCNC(=O)C(c1ccc(O)cc1)N(Cc1ccco1)C(=O)CCC(=O)Nc1nccs1 (configuration not stated),0.5
O=C(Nc1cc2c3c(c1)C1CCCC1CN3CC1CCCC21)c1ccc([N+](=O)[O-])cc1 (configuration not stated),i
NC(=O)C1CCN(C(=O)C2c3ccccc3C(=O)N3CCc4ccccc4C23)CC1 (configuration not stated),0.7
CCN1C(=O)C(CC(=O)Nc2ccc(Br)cc2)N(CCCc2ccccc2)C1=S (configuration not stated),i
Cc1cc(O)cc(O)c1-c1onc(C(F)(F)F)c1-c1cscn1,0.1
COC(=O)c1cccc(NC(=O)CN2CCN(c3ccc(OC)cc3)CC2)c1,i
SMILES,H5N1 antiviral
CN(c1ccccc1)S(=O)(=O)c1cc(C(=O)c2nccn2C)ccc1Cl,3.1
Cc1cccc2cc(CN(Cc3ccco3)C(=O)NC3CCCCC3)c(=O)[nH]c12,i
CCc1ccc(NC(=S)Nc2cccc(OC)c2)cc1,i
O=C(CN(C1CCCCC1)S(=O)(=O)c1ccc(Cl)cc1)N1CCOCC1,0.8
Cc1ccc(-c2nc3cc(NC(=O)C(C)C)ccc3o2)cc1C,i
O=C(Nc1ccc2nccnc2c1)c1cnccn1,2.7
Cn1nnnc1SCC(=O)N1CCN(c2ccccc2)CC1,0.3
Cc1ccc(SCC(=O)Nc2cccc(C(=O)NC(C)(C)C)c2)cc1,0.9
O=C(C1c2ccccc2C(=O)N2CCc3ccccc3C12)N1CCC2(CC1)OCCO2 (configuration not stated),0.5
O=C(NCCSCc1ccccc1)c1ccc(C2SCC(=O)N2Cc2ccccc2)cc1 (configuration not stated),i
O=C(NCCN1CCOCC1)c1cc2sccc2n1Cc1ccc(Cl)cc1,i
CCCn1c(SCC(=O)N2CCc3ccccc3C2)nc2c1c(=O)n(C)c(=O)n2C,1.2
COc1ccc(C(c2nnnn2C2CCCC2)N2CCC(C(N)=O)CC2)c(OC)c1 (configuration not stated),0.1
COc1cc(C)ccc1OCCOc1c(Cl)cc(Cl)cc1Cl,1.3
OCc1csc(=Nc2ccccc2)n1-c1ccccc1,i
O=C(O)c1ccc(NS(=O)(=O)c2cc(Cl)ccc2Cl)cc1O,0.3
CSc1ccc(C(=O)C(C)(C)N2CCOCC2)cc1,2.0
COc1ccc(/C=N/NC(=O)CCn2c3ccccc3c3ccccc32)cc1O,i
CCCn1c(=S)[nH]c2cc(C(=O)NCC3CCCO3)ccc2c1=O (configuration not stated),i
CC(c1ccco1)N(C(=O)CSc1ccc(Br)cc1)c1ccccn1 (configuration not stated),i
O=C(NCCCN1CCN(c2ccccc2F)CC1)C1CC(=O)N(C2CCCC2)C1 (configuration not stated),i
Cc1ccc(-c2c(C)n([O-])c3c([n+]2=O)CCC3)o1,1.0
N#Cc1ccccc1OCC(=O)OCC(=O)c1ccc2c(c1)NC(=O)CO2,i
Cc1cc(NCCO)c2cc(O)ccc2n1,i
C/C(N)=C(/C#N)C(=O)COC(=O)COc1ccc(Cl)cc1,i
SMILES,H5N1 antiviral
COc1cccc(NC(=O)N2CCOCC2)c1,i
CC(=O)C(Sc1nc(NC(C)(C)C)nc(N(C)C)n1)C(C)=O,i
COc1cccc(C(=O)N2CCN(Cc3ccco3)CC2)c1OC,0.1
Cc1ccccc1-c1nnc(SCC(=O)NC2CCCCC2)o1,i
COc1ccc(Br)cc1CNC(=O)C1CCN(S(=O)(=O)N2CCCC2)CC1,1.1
NC(=O)C1CCN(C2CC(=O)N(c3cccc(F)c3)C2=O)CC1 (configuration not stated),i
O=c1[nH]c2ccccc2nc1C(F)(F)C(F)F,i
Clc1ccc(Oc2cnns2)cc1Cl,i
CCc1nnc(NC(=O)c2ccc3c(c2)C(=O)N(C(C)(C)C)C3=O)s1,0.1
COC(=O)c1ccc(-n2c(C)cc(/C=N/n3cnnc3)c2C)cc1,i
O=C1CSC2=NCN(c3ccc4c(c3)OCO4)CN12,0.4
O=[N+]([O-])c1ccc(-c2nc3ccc([N+](=O)[O-])cc3[nH]2)cc1,9.6
CCOC(=O)C1=C(CN2c3ccccc3CC2C)NC(=O)NC1c1ccccc1 (configuration not stated),i
CCc1ccc(NC(=O)CC2C(=O)Nc3c2c(=O)n(C)c(=O)n3C)cc1 (configuration not stated),1.0
COc1cc(S(=O)(=O)N2CCOCC2)ccc1F,1.1
Cc1cc(NC(=O)c2cccc3ccccc23)cc(C)c1OCC(=O)N1CCOCC1,i
CCN(CCO)Cc1cc(=O)oc2c(C)c(C)ccc12,1.1
O=C(Oc1oc(-c2ccco2)nc1C=Nc1ccc(Cl)cc1)c1ccco1,i
COc1cc(CN2CCN(CCOCCO)CC2)cc(OC)c1OC,0.0
CCCN(CCC)C(=O)CSc1nc2ccccc2c(=O)n1C1CCCC1,i
COc1ccc(OCc2nn3c(-c4cccc(OC)c4)nnc3s2)cc1,0.9
CCn1nnnc1-c1ccc(OC)c(S(=O)(=O)Nc2ccc(OC)cc2)c1,3.0
Cc1ccc(NC(=O)c2cc(NC(=O)CCCC(=O)O)ccc2Cl)cc1Cl,0.0
O=C(CCN1C(=O)c2ccccc2C1=O)N1CCCCCC1,0.1
COc1ccccc1NCC(=O)N/N=C/c1cccnc1,i

# 18 entries already listed, sorted by molar mass, descending:
SMILES,H5N1 antiviral
COc1ccc(Br)cc1CNC(=O)C1CCN(S(=O)(=O)N2CCCC2)CC1,1.1
Cc1cc(NC(=O)c2cccc3ccccc23)cc(C)c1OCC(=O)N1CCOCC1,i
Cc1ccc(NC(=O)c2cc(NC(=O)CCCC(=O)O)ccc2Cl)cc1Cl,0.0
CCOC(=O)C1=C(CN2c3ccccc3CC2C)NC(=O)NC1c1ccccc1 (configuration not stated),i
CCn1nnnc1-c1ccc(OC)c(S(=O)(=O)Nc2ccc(OC)cc2)c1,3.0
CCCN(CCC)C(=O)CSc1nc2ccccc2c(=O)n1C1CCCC1,i
COc1ccc(OCc2nn3c(-c4cccc(OC)c4)nnc3s2)cc1,0.9
COc1cc(CN2CCN(CCOCCO)CC2)cc(OC)c1OC,0.0
Cc1ccccc1-c1nnc(SCC(=O)NC2CCCCC2)o1,i
COc1cccc(C(=O)N2CCN(Cc3ccco3)CC2)c1OC,0.1
CC(=O)C(Sc1nc(NC(C)(C)C)nc(N(C)C)n1)C(C)=O,i
COC(=O)c1ccc(-n2c(C)cc(/C=N/n3cnnc3)c2C)cc1,i
NC(=O)C1CCN(C2CC(=O)N(c3cccc(F)c3)C2=O)CC1 (configuration not stated),i
COc1ccccc1NCC(=O)N/N=C/c1cccnc1,i
O=C1CSC2=NCN(c3ccc4c(c3)OCO4)CN12,0.4
COc1cc(S(=O)(=O)N2CCOCC2)ccc1F,1.1
O=c1[nH]c2ccccc2nc1C(F)(F)C(F)F,i
COc1cccc(NC(=O)N2CCOCC2)c1,i

# Other records
SMILES,H5N1 antiviral
Cc1c(C(=O)NC(C)c2ccncc2)oc2ccccc12 (configuration not stated),0.5
Cc1ccc(CNC(=O)CCc2nc(-c3cccs3)no2)cc1,i
O=C(CSc1nnc(Cn2c(=O)sc3ccccc32)n1-c1ccccc1)N1CCCC1,0.6
COC(=O)C(C)N1C(=O)S/C(=C\c2cc(C)n(-c3ccccn3)c2C)C1=O (configuration not stated),1.8
COc1ccc(-n2c(SCC(=O)N3CCCC(C)C3)nnc2-c2cccnc2)cc1 (configuration not stated),0.7
Nc1c(C(=O)Nc2ccc3c(c2)OCCO3)nnn1CCc1ccccc1,i
CCn1c(C)c(C(C)=O)c(N2CCCC2)nc1=S,i
C=CCn1c(O)c(C(CC)=NCCc2ccccc2)c(=O)[nH]c1=O,1.0
O=c1[nH]c(NCc2ccco2)nnc1Cc1ccccc1Cl,8.3
COc1ccc(C(=O)c2ccc(Br)cc2)cc1,0.2
CC1=C(C(=O)OCC(C)C)C(c2ccccc2Cl)NC(=O)N1C (configuration not stated),1.3
Cc1c(NC(=O)c2ccc(N3C(=O)C4C5C=CC(C5)C4C3=O)cc2)c(=O)n(-c2ccccc2)n1C (configuration not stated),i
CCSCCOC(=O)C1=C(C)NC(=O)NC1c1ccc2c(c1)OCO2 (configuration not stated),0.1
O=C(NCc1ccccn1)Nc1ccc2c(c1)OCO2,i
Cc1cc2ccccn2c1C(=O)c1ccncc1,i
COc1ccc(NC(=O)c2cc(S(=O)(=O)N3CCS(=O)(=O)CC3)ccc2Cl)cc1,0.2
COC(=O)CN(c1nc(C)c(Br)c(OC)n1)S(=O)(=O)c1ccc(C)cc1,2.5
Cn1c(=O)c2c(nc(CN3CCN(C(=O)c4ccco4)CC3)n2CCc2ccccc2)n(C)c1=O,2.2
COC(=O)c1ccccc1NC(=O)c1sc(=S)n(C)c1N,0.9
Cc1ccccc1N1OC2C(=O)N(c3ccc(F)cc3)C(=O)C2C1c1ccccn1 (configuration not stated),0.5
O=C(COc1ccccc1Cl)NC(=S)N1CCc2ccccc21,i
CC1CC2=C(CC1/C=N/NC(N)=S)C(C)(C)CCC2 (configuration not stated),i
CCc1nnc(SCC(=O)NC2CCCCC2)nc1CC,0.8
Cc1ccc(C(c2sc3nc(C)nn3c2O)N2CCN(c3ccccc3)CC2)cc1 (configuration not stated),i
Cc1ccc(C)c(N2CCN(C(=O)CN(C)S(=O)(=O)c3cnc[nH]3)CC2)c1,i
SMILES,H5N1 antiviral
COC(=O)Nc1nnc(CCc2ccccc2)s1,1.1
CCn1c(NC(=O)c2ccc(C)cc2)c2ccccc2nc1=O,i
Cc1ccc(C2CC(=O)N(c3ccc(F)cc3)C3=C2C(=O)CCC3)cc1 (configuration not stated),i
COC(=O)c1ccc(NC(=O)CSCc2ccccc2)cc1,i
CCCCCCn1c(N2CCC(C(N)=O)CC2)nc2c1c(=O)n(C)c(=O)n2C,i
Cc1cc(C)c(C(N)=O)c(NCCc2ccccc2)n1,0.4
CCOc1cc(C2C(C(=O)OCC(C)C)=C(C)N=C3SCCC(=O)N32)ccc1OC(C)=O (configuration not stated),i
Cc1ccc(N(CC(=O)NC2CCCC2)C(=O)CCCC(=O)Nc2ccccn2)cc1C,i
Cc1c(Cl)c(-c2n[nH]c(=S)n2-c2ccc(F)cc2)nn1C,i
CCOC(=O)c1[nH]c2ccccc2c1NC(=O)CCN1CCN(C(=O)OCC)CC1,i
COc1ccc(CNCC(O)(c2ccccc2)c2ccc(Cl)cc2)cc1 (configuration not stated),i
COc1ccc(C2CC(c3cccc(Cl)c3)n3nc(N)nc3N2)cc1 (configuration not stated),0.2
COc1ccc(S(=O)(=O)N(CC(=O)N2CCOCC2)Cc2ccccc2)cc1C,i
CCn1c(SCc2nc(-c3ccc(Cl)cc3)no2)nnc1-c1ccco1,i
O=C(CSc1nnc(COc2cccc3ccccc23)o1)N1c2ccccc2CCc2ccccc21,i
O=C(CSCc1ccc(Br)cc1)Nc1ccc(S(=O)(=O)N2CCCCCC2)cc1,9.9
Cc1cc(NC(=O)c2cc(CC(C)C)on2)n(-c2ccccc2)n1,2.8
COc1ccc(CC(=O)Nc2cccc(-c3nnc(-c4ccc(C)cc4)o3)c2)cc1OC,1.2
CCOC(=O)c1c(C)[nH]c(C(=O)CN2CCOCC2)c1C,0.3
FC(F)(F)C(Oc1nc(NC2CCCCC2)nc(N2CCOCC2)n1)C(F)(F)F,6.6
O=C1C2C3C=CC(C3)C2C(=O)N1Cc1ccccc1 (configuration not stated),2.4
CCOC(=O)c1[nH]c2ccc(C)cc2c1N=C(C)N(C)C,5.6
Cc1nn(CC(=O)Nc2ccc3c(c2)nc(CN2CCCC2)n3C)c(=O)c2ccccc12,i
O=C(CSC1CC(=O)N(CC(c2ccccc2)c2ccccc2)C1=O)Nc1ccc(Cl)cc1 (configuration not stated),i
CCCc1cc(C(=O)N(C2CCCCC2)C2CCCCC2)no1,i
SMILES,H5N1 antiviral
O=C(NCCc1ccc(Cl)cc1)c1cccnc1,i
O=C(NCc1ccco1)c1cccs1,0.5
Cn1c(Oc2ccccc2NCc2cc(Br)ccc2O)cc(=O)n(C)c1=O,4.1
O=C(Nc1cccc2c1CCCC2)c1ccco1,0.2
Cc1cc(C)c(S(=O)(=O)N2CCN=C2c2ccccc2)cc1C,0.4
Cc1n[nH]c(C)c1S(=O)(=O)N(CC(=O)Nc1ccc2c(c1)OCCO2)c1ccc(C(C)C)cc1,i
Cc1ccc(C(=O)Nc2ccccc2C(=O)NC(CC(=O)O)C(=O)O)cc1 (configuration not stated),i
COc1ccc(S(=O)(=O)N2CCOCC2)cc1C(=O)Nc1nc2ccccc2s1,0.8
COc1ccc(NC(=O)CSc2nc(N)c(C(=O)Nc3ccc(N(C)C)cc3)s2)cc1,1.0

# Reprinted at random: 2 compounds from above, in no set order.
SMILES,H5N1 antiviral
O=C(NCc1ccco1)c1cccs1,0.5
O=C(Nc1cccc2c1CCCC2)c1ccco1,0.2
